NS1 function inh = qHTS Assay for Inhibitors of Influenza NS1 Protein Function | S. cerevisiae slowed by influenza A NS1, growth recovery by OD600 | Potency, µM (titrated, usually from 46.1 µM), for inactives: top-dose activity, positive = more growth | hit rate 0.4% among 270,000 | AID 2326, 2010; active means well fitted rising curve with a large enough effect; inconclusive means small, poorly fitted or top-dose-only effect; inactive means no such curve, though single readings can be large or run the other way; further: nearly all actives have a fitted effect of over 50% in size
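Read-out: OD600 growth recovery of NS1-expressing budding yeast. Cells grown overnight at 30C in -URA glucose medium, washed, resuspended and diluted 1:100 in 2% galactose assay medium, pH 6.0. Same strain lacking NS1 served as positive control.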
Cruzain inh noDet = qHTS Assay for Promiscuous and Specific Inhibitors of Cruzain (without detergent). AID 1476, 2009. purified cruzain, Z-FR-AMC fluorescence, no detergent. hit rate 2.3% among 200,000. Potency, µM, inactives show max response, negative = inhibition, most hits filed as inhibitors;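 further: plate controls were enzyme without inhibitor for no effect and buffer without enzyme for full effect; nearly all actives have a fitted effect of over 40% in size; top concentration of the series not given in the record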
Target sequence (P25779 123-467 limits assumed): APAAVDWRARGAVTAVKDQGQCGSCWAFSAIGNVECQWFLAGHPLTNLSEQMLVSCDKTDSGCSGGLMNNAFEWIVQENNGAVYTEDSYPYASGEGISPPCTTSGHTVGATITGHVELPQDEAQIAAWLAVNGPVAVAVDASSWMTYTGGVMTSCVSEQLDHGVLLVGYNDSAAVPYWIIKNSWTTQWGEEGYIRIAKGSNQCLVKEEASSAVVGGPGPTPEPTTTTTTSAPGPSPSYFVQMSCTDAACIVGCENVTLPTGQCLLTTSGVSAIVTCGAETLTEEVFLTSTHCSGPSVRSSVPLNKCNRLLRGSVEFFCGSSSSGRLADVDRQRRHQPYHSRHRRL
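Purified cruzain at 1.5 nM, pre-incubated 15 min with compound at room temperature in 100 mM sodium acetate pH 5.5, 5 mM DTT, 0.00005% Triton X-100. Reaction started with 2 uM Z-FR-AMC; AMC fluorescence increase over 60 s gives rate.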
StopGo reporter = High Throughput Screening for Foot and Mouth Disease Virus Antivirals | hit rate 1.2% among 410,000 | AID 1159524, 2015 | human cells with a luciferase reporter of 2A StopGo recoding; control for the full effect not named in the record | Potency, µM (top dose mostly 57.9 µM), without a hit: at the top dose signal change, negative = less light; active = well fitted falling curve with a large enough effect; inconclusive = small, poorly fitted or top-dose-only effect; inactive = no such curve, though single readings can be large or run the other way; tested in HEK293T cells; further: on the % scale 0 is the no-effect control and ±100 the full control effect; nearly all actives have a fitted effect of over 45% in size; luciferase light after 4 h
Cruzain inh Det = qHTS Assay for Promiscuous and Specific Inhibitors of Cruzain (with detergent) | AID 1478, 2009 | hit rate 0.43% among 200,000 | purified cruzain, Z-FR-AMC fluorescence, 0.01% Triton | Potency, µM, without a hit: max response, negative = inhibition, usual class: inhibitors | Cruzipain (Trypanosoma cruzi), P25779;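 further: plate controls were neutral wells for no effect and buffer without enzyme for full effect; nearly all actives have a fitted effect of over 40% in size; top concentration of the series not given in the record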
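Steps: dispense cruzain (1.5 nM final) in acetate buffer pH 5.5 with DTT and 0.01% Triton X-100; pin-transfer compounds; incubate 15 min RT; add Z-FR-AMC (2 uM final); read fluorescence every 30 s, using the 60 s intensity change.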
MARV entry inh = qHTS for inhibitors of binding or entry into cells for Marburg Virus; Marburg virus pseudotyped entry inhibition, cell reporter; control for the full effect not named in the record; about a third of the inactives were read at about 46 µM; hit rate 1.8% among 300,000; Potency, µM (highest dose often 37.8 µM), for inactives: top-dose activity change, negative = inhibition, usual class: inhibitors; active = well fitted inhibition curve with a large enough effect; inconclusive = small, poorly fitted or top-dose-only effect, or effect the other way; inactive = flat fitted curve, though single readings scatter; tested in HEK293 cells; about a fifth of its hits are not listed in these tables; further: on the % scale 0 is the no-effect control and ±100 the full control effect; luciferase read-out
Lassa entry inh = qHTS for Inhibitors of binding or entry into cells for Lassa Virus | Lassa virus pseudotype entry inhibition, cell reporter; control for the full effect not named in the record | Potency, µM (highest dose often 37.9 µM), for the others: at the highest dose activity change, negative = inhibition, actives largely listed as inhibitors | AID 540256, 2011 | hit rate 1.2% among 300,000; active means well fitted inhibition curve with a large enough effect; inconclusive means small, poorly fitted or top-dose-only effect, or effect the other way; inactive means flat fitted curve, though single readings scatter; tested in HEK293 cells; further: on the % scale 0 is the no-effect control and ±100 the full control effect; nearly all actives have a fitted effect of over 50% in size; luciferase read-out
SARS PLpro yeast = qHTS of Yeast-based Assay for SARS-CoV PLP; Potency, µM (doses to about 32.9 µM), for inactives: top-dose activity, positive = growth rescue; S. cerevisiae expressing SARS-CoV PLpro, growth rescue; control for the full effect not named in the record; hit rate 0.19% among 330,000; active means well fitted rising curve with a large enough effect; inconclusive means small, poorly fitted or top-dose-only effect; inactive means no such curve, though single readings can be large or run the other way; further: 0% is about no effect; nearly all actives have a fitted effect of over 55% in size; growth read by luminescence after 48 h
RE007 growth inh = qHTS Assay for Inhibitors of the HIV-1 protein Vpr | S. pombe RE007 Vpr strain, BacTiter-Glo ATP luminescence, 24 h; control for the full effect not named in the record | Potency, µM (top dose mostly 92.2 µM), without a hit: at the highest dose activity change, negative = less growth | hit rate 0.21% among 360,000 | AID 651644, 2012; active = well fitted falling curve with a large enough effect; inconclusive = small, poorly fitted or top-dose-only effect; inactive = no such curve, though single readings can be large or run the other way;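 further: on the % scale 0 is the no-effect control and ±100 the full control effect; nearly all actives have a fitted effect of over 50% in size; the assay follows cell death caused by Vpr and the record does not say whether a fall means rescue or toxicity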
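Fission yeast strain RE007, carrying one chromosomally integrated HIV-1 vpr copy, was seeded at OD 0.01 in PMG+AL medium with 23 nL pinned compound. After 24 h at 30 °C and 99% humidity, viability was read by BacTiter-Glo luminescence.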
Active calls of the source: *; u = inconclusive; x = not tested or not shown; [ ] = another dose, or the depositor's remark. Unless noted, the call rests on the fitted dose curve; in most records, active means well fitted curve in the direction sought with a large enough effect; inconclusive means small, poorly fitted or top-dose-only effect, or another doubt; inactive means no such curve, though single readings can be large; an effect the other way counts as inactive or inconclusive. Potency means the concentration at half of the fitted maximal effect.

molecule	NS1 function inh	Cruzain inh noDet	StopGo reporter	Cruzain inh Det	MARV entry inh	Lassa entry inh	SARS PLpro yeast	RE007 growth inh
Cc1nn(C)c(C)c1S(=O)(=O)N(CC(=O)N1CCc2ccccc2C1)c1ccc(C(C)C)cc1	-4%	u	-17%	1.9%	2%	x	-1%	-9%
CC(C)NC(=O)Cc1csc2nc(-c3ccccc3)cn12	x	-4%	-3%	-0.7%	x	12%[46.1 µM]	x	x
CCn1c(CC(=O)Nc2ccccc2)nnc1SCc1nc2ccccc2c(=O)[nH]1	2%	x	-12%	x	x	x	0%	-6%
O=C(Nc1nnc(C2=COCCO2)o1)c1ccc(Cc2ccccc2)cc1	-4%	x	6%	x	u	u	-1%	4%
COc1ccc(OC)c(S(=O)(=O)Nc2cccc(C(C)=O)c2)c1	4%[9.22 µM]	3%	x	1.3%	1%	-2%	2%	-7%
CCOc1ccccc1NC(=O)CCc1nnc2ccc(N3CCC(C)CC3)nn12	-16%	x	u	x	x	x	-4%	-2%
COc1ccc(C(CNS(=O)(=O)c2ccccc2)N2CCN(C)CC2)cc1 (stereo not drawn)	x	x	21%	x	u	3%	3%	2%
Cc1ccc(S(=O)(=O)CCC(=O)Nc2ccccc2C)cc1	-10%	x	7%	x	23%[46.1 µM]	22%[46.1 µM]	2%	16%
CCOC(=O)c1c(-c2ccc(F)cc2)cn2ccccc12	2%	3%	-16%	-15%	-4%	0%	u	22%
CCOc1ccc(-n2c(-c3ccco3)n[nH]c2=S)cc1	-2%	5%	-11%	-3.1%	10%	8%	6%	4%
O=C(NCc1ccc2c(c1)OCO2)C1CCCN(S(=O)(=O)c2cccc3cccnc23)C1 (stereo not drawn)	-12%	-1%	-4%	-4.8%	x	x	0%	8%
FCCCOc1ccc(/C=N/OCc2ccc(Cl)cc2)cc1	1%	1%	-2%	-1.8%	11%	u	-1%	-12%
Cc1c(C(=O)Nc2ccc(Nc3ccccc3)cc2)cccc1[N+](=O)[O-]	-23%	x	u	x	x	x	-17%	-21%
CCc1ccc(NC(=O)CCCc2nnc3n(CCCOC)c(=O)c4sccc4n23)cc1	x	1%	-26%	-0.1%	x	5%[46.1 µM]	x	x
O=C(CN1C(=O)NC(Cc2c[nH]c3ccccc23)C1=O)Nc1cccc(S(=O)(=O)N2CCCCCC2)c1 (stereo not drawn)	21%	-28%	-4%	-8.3%	u	-15%	4%	-9%
COCCNCC(=O)NCC12CC3CC(CC(C3)C1)C2	10%	7%	-18%	-1.4%	u	1%	-1%	3%
COc1cc(C(=O)NCc2nnc(SCC(=O)NCCc3ccccc3)o2)cc(OC)c1OC	4%	x	-9%	x	-6%[46.1 µM]	-5%[46.1 µM]	-1%	-1%
O=C(O)CCCn1cc(NC(=O)COc2cccc(Cl)c2)cn1	-4%	x	-6%	x	u	u	-5%	12%
COc1ccc(NC(=O)CCNC(=O)c2ccc([N+](=O)[O-])cc2)cc1S(=O)(=O)N1CCOCC1	x	x	-7%	x	11%	-2%	0%	2%
COc1ccc(C(CNC(=O)c2ccc(S(=O)(=O)N(C)C)cc2)N(C)C)cc1 (stereo not drawn)	4%	x	6%	x	2%[46.1 µM]	5%[46.1 µM]	-1%	-8%
COc1ccc(NC(=O)/C(C#N)=C\c2ccc(OCc3ccc(C(=O)O)cc3)c(OC)c2)cc1	x	x	-10%	x	u	3%	1%	1%
CC(C)COC(=O)NC1c2ccccc2Oc2ccccc21	1%	x	-9%	x	u	26%	-2%	-5%
O=C(CSCc1cc(=O)n2ccsc2n1)Nc1ccccc1	-8%	x	-3%	x	x	x	2%	2%
CC1(C)Cc2c(sc(NC(=O)c3ccco3)c2C#N)C(C)(C)N1	-1%	3%	-11%	-7.7%	8%	4%	3%	10%
OC(Cn1c2ccccc2c2ccccc21)C[n+]1ccccc1 (stereo not drawn)	5%	-7%	21%	1.8%	5%	u	0%	-24%
CCCNC(=O)CCc1nnc2ccc(N3CCN(c4cccc(OC)c4)CC3)nn12	x	23%	-6%	-1.8%	x	-23%[46.1 µM]	x	x
CCOc1ccc(CCNC(=O)c2oc3c(c2C)-c2[nH]ncc2CC3)cc1OCC	-35%	-13%	-9%	-9.5%	-27%	-8%	-16%	14%
CC1=C(C#N)C(c2cn(-c3ccccc3)nc2-c2cccs2)C(C#N)=C(C)N1	-19%	u	x	-11%	u	-12%	-1%	1%
COCCn1c(=O)[nH]c2cc(C(=O)Nc3cc(C)cc(C)c3)ccc2c1=O	10%	x	-27%	x	u	u	-24%	3%
COc1ccc(OC)c(C(Nc2ccccc2)P(=O)(OC(C)C)OC(C)C)c1 (stereo not drawn)	-33%	x	6%	x	u	u	0%	-5%
CCOC(=O)C1CCN(Cc2c(F)cccc2Cl)CC1	-7%	2%	8%	3.9%	-5%	u	4%	-6%
O=C(O)c1c(Cl)cccc1Cl	x	-7%	-4%	-2.3%	-5%	x	-2%	11%
CCC1(CC)CNC(=O)NC1	x	x	-9%	x	7%[46.1 µM]	7%[46.1 µM]	x	u
Cc1ccc(Oc2ccc(C=O)cn2)cc1	x	x	21%	x	u	6%	-2%	-9%
CCOC(=O)c1nn(-c2ccc(Cl)cc2)c(=O)c(C#N)c1C	4%	x	-24%	x	x	x	7%	-6%
COCCCNC(=O)CCc1ccc(S(=O)(=O)Nc2ccc(C)cc2)cc1	6%	9%	1%	1.3%	-3%	-7%	8%	12%
CCOC(=O)c1sc(-c2ccc(C(F)(F)F)cc2)nc1O	-60%	x	9%	x	-3%[46.1 µM]	5%[46.1 µM]	-6%	u
CCOC(=O)C1=C(N2CCCCC2)c2cc3c(n2C1=O)CCCC3	-58%	0%	-23%	-1.9%	0%	-3%	-11%	6%
CC(C)(C)C1CCc2c(sc(NC(=O)c3ccncc3)c2C(N)=O)C1 (stereo not drawn)	19%	-5%	11%	-2.2%	u	u	1%	1%
COc1cc(C(=O)NCc2nnc(SCC(=O)N3CCCCC3)o2)cc(OC)c1OC	4%	-1%	-1%	-4.7%	12%[46.1 µM]	-1%	-4%	0%
O=C(NCc1cccnc1)c1cccnc1Sc1ccc(Cl)cc1	-4%	-1%	-17%	2.5%	10%	-1%	4%	8%
Cc1ccc(Cn2c(CNC(=O)CCc3ccccc3)nc3cccnc32)cc1	x	-4%	2%	-7.1%	x	-14%[46.1 µM]	x	x
Cc1ccccc1Cn1ccc(-c2ccc(Cl)cc2)c(C#N)c1=O	8%	25µM*	0%	-8.0%	-28%	-9%	-2%	9%
Cc1nn(CC2CC2)c(=O)n1-c1ccccc1F	x	x	-30%	x	14%[46.1 µM]	u	-2%	1%
CCOc1ccc2[nH]c(=O)c(CN(Cc3ccc(C)cc3)C(=O)N3CCCC3)cc2c1	-12%	3%	0%	-4.5%	-24%	-12%	4%	21%
COCCn1c(=O)[nH]c2cc(C(=O)N3CCN(c4ccccc4F)CC3)ccc2c1=O	7%	x	-13%	x	-18%[46.1 µM]	2%	2%	3%
Cc1ccnc(NC(=O)c2cccc([N+](=O)[O-])c2C)c1	x	x	40%[activator]	x	-5%[46.1 µM]	-28%[46.1 µM]	-3%	-15%
COC(=O)c1nnn(-c2nonc2N)c1COc1ccc(C=O)cc1OC	u	x	0%	x	x	x	-3%	2%
Cc1nc2c3ccccc3nc(NNC(=O)CCC(=O)NCCC(C)C)n2n1	5%	1%	3%	2.5%	9%	0%	24%	2%
COC(=O)c1ccccc1OCC(=O)N1CCN(c2ccc(OC)cc2)CC1	-14%	3%	-1%	3.3%	11%	17%	6%	13%
CC(NC(=O)Nc1ccccc1C(F)(F)F)C1CCCO1 (stereo not drawn)	1%	-5%	34%[activator]	18%	0%	19%[14.3 µM]	8%	9%
O=C(C=Cc1cccs1)c1ccc(Cl)s1	x	x	27%	x	u	-5%[46.1 µM]	x	u
CC(C)(C)c1ccc(NC(=O)COC(=O)CCc2nc3ccccc3c(=O)[nH]2)cc1	-1%	8%	13%	-7.7%	-4%	-1%	7%	-11%
C(=N\N1CCN(C2c3ccccc3-c3ccccc32)CC1)/c1cccnc1	18%	-8%	-2%	-7.6%	-3%	-12%	2%	u
Nc1cc(C(F)(F)F)ccc1OCC1CCCO1 (stereo not drawn)	14%	x	33%[activator]	x	x	x	-11%	-22%
O=C(CN1C(=O)/C(=C/c2ccccc2)SC1=S)N1CCN(CCc2ccccn2)CC1	-8%	x	-28%	x	u	u	1%	3%
CC(=O)NC1(C(F)(F)F)C(=O)Nc2c1c(=O)[nH]c(=O)n2CCc1ccccc1 (stereo not drawn)	0%	x	2%	x	x	x	0%	9%
O=C(Nc1c2c(nn1-c1ccc([N+](=O)[O-])cc1)CS(=O)(=O)C2)c1ccco1	-5%	x	-8%	x	x	x	u	-5%
CCCCn1c(SCC(=O)NCc2ccco2)nc2c1c(=O)n(C)c(=O)n2C	9%[9.22 µM]	3%	4%	-6.4%	-6%	-11%	22%	10%
Cc1ccc(NC(=O)N2CCCC2C(=O)NCC2CCCO2)cc1 (stereo not drawn)	3%	x	1%	x	-6%[46.1 µM]	0%[46.1 µM]	0%	-2%

Next part
molecule	NS1 function inh	Cruzain inh noDet	StopGo reporter	Cruzain inh Det	MARV entry inh	Lassa entry inh	SARS PLpro yeast	RE007 growth inh
Cc1ccnc2nc(C(=O)OCC(=O)N3CCc4ccccc43)nn12	x	x	-9%	x	17%	0%	-2%	-9%
COc1ccc(NC(=O)c2ccco2)cc1NC(=O)COc1ccc(C)cc1C	x	28%	u	-0.4%	-1%[46.1 µM]	0%[46.1 µM]	x	x
COc1ccc(CC(C)CC(=O)NCCc2ccc(OC)c(OC)c2)cc1 (stereo not drawn)	-10%	x	-6%	x	x	x	-1%	4%
Cc1ccc(C(=O)NN2C(=O)C3C4c5ccccc5C(c5ccccc54)C3C2=O)cc1 (stereo not drawn)	11%	-10%	-29%	-3.3%	-9%	-16%	6%	5%

Compound activity deposited in PubChem BioAssay by National Center for Advancing Translational Sciences (NCATS).
